Bioassay records: PubChem, National Center for Advancing Translational Sciences (NCATS)
Six1-Eya2 blk: qHTS Assay for Inhibitors of the Six1/Eya2 Interaction; AID 651725, 2012; actives 0.56% (n = 360,000); activity change, % (test concentration not listed); Homeobox protein SIX1 (Homo sapiens) + Protein phosphatase EYA2 (Homo sapiens), …; AlphaScreen GST-Six1/His-Eya2 binding, biochemical; active compounds read low; control for the full effect not named in the record; in the data active = activity change below about -65%; inconclusive = about -30% to -65%; inactive = above about -30%; note: % is set by controls: 0 for no effect and ±100 for the full control effect
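Compounds are tested against tagged Six1 and Eya2 proteins bridged by glutathione donor and nickel acceptor beads; after a one-hour incubation at 37 °C without light, AlphaScreen emission is recorded.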
TRPML1 ag: qHTS for Agonists of the Human Mucolipin Transient Receptor Potential 1 (TRPML1); Mucolipin-1 (Homo sapiens), Q9GZU1; TRPML1-expressing cells, Ca2+ dye fluorescence, FDSS; host cell line not named in the record; reference of the full effect not given here; activation, % (concentration not given with the values); actives 0.12% (n = 410,000); AID 624414, 2012; in the data active = activation above about 50%; inconclusive = about 30% to 50%; inactive = below about 30%; note: 0% is about no effect; the text of the record puts the active cut at 80%
Target sequence (Q9GZU1 whole entry, looked up): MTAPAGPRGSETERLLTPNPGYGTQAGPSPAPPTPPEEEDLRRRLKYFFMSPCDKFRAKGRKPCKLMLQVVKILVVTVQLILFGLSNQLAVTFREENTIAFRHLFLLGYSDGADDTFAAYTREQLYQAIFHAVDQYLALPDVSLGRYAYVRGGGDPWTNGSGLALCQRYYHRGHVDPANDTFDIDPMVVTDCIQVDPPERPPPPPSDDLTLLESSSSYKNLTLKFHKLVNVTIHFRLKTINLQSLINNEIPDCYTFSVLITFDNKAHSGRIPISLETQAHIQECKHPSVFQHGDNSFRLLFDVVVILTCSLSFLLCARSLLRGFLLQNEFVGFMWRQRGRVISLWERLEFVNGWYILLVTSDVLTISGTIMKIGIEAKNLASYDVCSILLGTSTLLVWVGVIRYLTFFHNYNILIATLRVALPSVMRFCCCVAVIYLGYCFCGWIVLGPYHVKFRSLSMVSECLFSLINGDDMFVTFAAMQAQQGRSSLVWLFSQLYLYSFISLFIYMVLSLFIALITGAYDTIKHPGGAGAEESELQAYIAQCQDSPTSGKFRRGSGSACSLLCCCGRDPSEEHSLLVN
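Kinetic FDSS Ca2+ read in Tet-induced TRPML1-DL cells (ABD Ca8 dye plus quencher, 45-90 min RT loading): baseline, then compound, then 110 s agonist window; EC80 agonist 54-4 at 4uM final added afterwards for a 110 s antagonist window.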
D2 ag: Beta-Arrestin HTS for Positive Allosteric Modulators of the Human D2 Dopamine Receptor: Agonists; D(2) dopamine receptor (Homo sapiens), P14416; DiscoveRx PathHunter D2 beta-arrestin, luminescence, 90 min; 100% = 57 uM dopamine signal; activation, % (no concentration beside the values); actives 0.084% (n = 360,000); AID 624465, 2012; in the data active = activation above about 40%; inconclusive = about 15% to 40%; inactive = below about 15%; note: compound concentration not given in the record; the text of the record calls up to 30% inactive
Target sequence (P14416 whole entry, looked up): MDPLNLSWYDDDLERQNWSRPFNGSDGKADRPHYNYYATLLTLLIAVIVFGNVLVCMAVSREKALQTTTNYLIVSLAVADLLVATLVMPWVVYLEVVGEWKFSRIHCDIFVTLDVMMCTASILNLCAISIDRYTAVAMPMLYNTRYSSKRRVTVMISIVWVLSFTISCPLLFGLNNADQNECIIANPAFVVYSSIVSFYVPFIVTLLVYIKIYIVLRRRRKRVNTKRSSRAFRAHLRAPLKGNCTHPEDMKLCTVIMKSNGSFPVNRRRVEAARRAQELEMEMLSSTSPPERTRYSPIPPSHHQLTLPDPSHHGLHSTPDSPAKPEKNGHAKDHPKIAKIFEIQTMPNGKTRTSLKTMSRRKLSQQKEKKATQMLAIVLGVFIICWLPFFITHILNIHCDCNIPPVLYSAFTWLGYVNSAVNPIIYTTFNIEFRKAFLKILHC
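DiscoveRx PathHunter D2 beta-arrestin cells (2,100/well) attached overnight, then compound-stimulated 90 min at 37 C in HBSS/10 mM HEPES/0.1% Tween-20 buffer; beta-galactosidase complementation read by luminescence after 1 h at ambient temperature. Dopamine 57 uM final (EC100) as control.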
PINK1 modulator: A Quantitative High throughput Screen to Identify Chemical Modulators of PINK1 Expression | PINK1 immunofluorescence, high-content cytometry, 24 h | Potency, µM (highest dose often 76.6 µM), inactives show at the top dose activation (PINK1 increase), most hits filed as activators | actives 0.2% (n = 410,000); active = well fitted activation curve with a large enough effect; inconclusive = small, poorly fitted or top-dose-only effect; inactive = flat fitted curve, though single readings scatter; cell line not stated here;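 note: potency is the fitted concentration of half-maximal effect; % of control where 0% means no effect; nearly all actives have a fitted effect of over 65% in size; a mitochondrial uncoupler was the plate control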
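A stable cell line was treated with compounds at 5 concentrations for 24 hours, with CCCP as control. PINK1 levels and mitochondrial localization were measured by immunofluorescence with mitochondrial, cell and nuclear markers after fixation, read by laser-scanning cytometry.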
D2 PAM: Beta-Arrestin HTS for Positive Allosteric Modulators of the Human D2 Dopamine Receptor: Potentiators | D(2) dopamine receptor (Homo sapiens), P14416 | DiscoveRx D2 beta-arrestin cells, luminescence, 90 min; 100% = 57 uM dopamine signal | potentiation, % (no concentration beside the values) | actives 0.23% (n = 360,000) | AID 624464, 2012; active = potentiation of 50% or more; inconclusive = 30% to 50%; inactive = 30% or less;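 note: compound concentration not given in the record; tested on top of an EC20 dose of dopamine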
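PathHunter beta-arrestin assay in DiscoveRx D2 cells. Compounds were added with an EC20 of dopamine (50 nM final) for 90 min at 37 deg C. Luminescence was read 1 h after detection reagent, with 57 uM dopamine as the EC100 control.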
TRPML1 inh: qHTS for Inhibitors of the Human Mucolipin Transient Receptor Potential 1 (TRPML1); activity change, negative = inhibition, % (no concentration beside the values); Mucolipin-1 (Homo sapiens), Q9GZU1; TRPML1-inducible cells, Ca2+ dye fluorescence, FDSS; active compounds read low; inhibition of EC80 agonist-evoked calcium signal; AID 624415, 2012; actives 0.02% (n = 390,000); in the data active means activity change below about -50%; inconclusive means about -30% to -50%; inactive means above about -30%;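 note: stimulus is agonist 54-4 at its EC80 concentration; % is set by controls: 0 for no effect and ±100 for the full control effect; compound concentration not given in the record; the text of the record puts the active cut at -80%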
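Calcium fluorescence in TRPML1-DL cells induced overnight with Tet: a 110 s read after compound pin addition, then a 110 s antagonist read after challenge with 54-4 at 4 uM final (EC80).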
* marks the source's active call; other numbers are inactive results; ? = inconclusive; · = no result given; [ ] = another dose, or the depositor's remark.

SMILES	Six1-Eya2 blk	TRPML1 ag	D2 ag	PINK1 modulator	D2 PAM	TRPML1 inh
CCC(CC)C(=O)N1CCc2cc(OC)c(OC)cc2C1COc1ccc(C(=O)OC)cc1 (stereo unspecified)	·	3.5	·	-4.4%	·	35
COc1cc2c(c(OC)c1O)C(=O)CO2	-2	-0.3	10	1.7%	-15	28
OCCNc1c2ccccc2nc2c(F)c(F)c(F)c(F)c12	4	2.5	0.9	3.1%	-2	8
CCOc1ccccc1NC(=O)C1CCCN(S(=O)(=O)c2ccc3c(c2)C(C)(C)C(=O)N3C)C1 (stereo unspecified)	-9	-1.2	-3.4	-1.2%	-3	28
C/C(=N\NC(=O)COc1ccccc1-c1ccccc1)c1ccc(O)cc1O	-12	-0.9	0.6	11%	-22	5
Cc1ccc(NC(=O)/C(=C/c2cccs2)NC(=O)c2ccco2)c(C)c1	-1	-0.4	-3.1	1.7%	-22	9
COC(=O)Cn1c(CCS(=O)(=O)c2ccc(Cl)cc2)nc2ccccc21	13	-1.0	0.1	-0.1%	-6	-10
O=C(O)c1cc([N+](=O)[O-])ccc1NCc1ccccn1	-5	-0.3	-0.9	3.3%	-12	20
Cn1c(=O)[nH]c(=O)c2c1nc(N1CCCCC1)n2CC(O)COc1ccc([N+](=O)[O-])cc1 (stereo unspecified)	-2	0.9	-0.7	0.5%	1	-10
O=C1CCCN1C(=O)CSc1nnnn1-c1ccccc1	0	-0.8	-4.3	0.0%	-1	-7
O=[N+]([O-])c1cccc(S(=O)(=O)NCCOc2cccc3cccnc23)c1	-1	0.6	-2.0	2.5%	-2	-6
COc1ccc(CCNC(=O)C2CCN(Cc3nc(-c4ccc(Cl)cc4)oc3C)CC2)cc1OC	-2	-0.5	-0.9	2.4%	-7	4
CCCCNC(=O)C1(C)CCCCN1C(=O)c1cc(C#N)cs1 (stereo unspecified)	11	-0.2	-3.3	-0.4%	-3	·
CCc1nnc(NC(=O)CSc2nnc(CNc3cccc(Cl)c3)n2CC)s1	-7	0.4	3.9	1.9%[38.3 µM]	4	-2
COc1cccc(CNC(=O)[C@@H](C)N2C(=O)N3CCc4c([nH]c5ccc(OC)cc45)C3(C)C2=O)c1 (stereo partly specified)	-13	·	-4.2	16%	-11	·
Cc1cccc(C)c1NC(=O)CCCSc1nnc(-c2ccc(F)cc2)n1-c1ccccc1	6	2.8	2.5	0.9%	-4	-1
Cc1ccc(NS(=O)(=O)c2cn(C)c(=O)n(C)c2=O)c(C)c1	-10	0.1	-4.3	-0.8%	-5	-8
CC(NCc1ccc(S(N)(=O)=O)cc1)C(=O)Nc1cccc(Cl)c1 (stereo unspecified)	-1	-0.9	-4.2	1.2%	-18	11
CCCN(CCC)C(=O)C1CCC(CNS(=O)(=O)c2cccc3nsnc23)CC1 (stereo unspecified)	-1	0.4	2.7	0.6%	-2	12
Cc1cccc(NC(=O)C2CCCN(S(=O)(=O)c3ccc4[nH]c(=O)ccc4c3)C2)c1 (stereo unspecified)	-5	1.3	-0.6	9.6%	0	15
Cc1cc(C(=O)NC2CC(C)(C)Cc3c2cnn3-c2ccc(F)cc2)nn1C (stereo unspecified)	2	0.9	2.0	1.9%	-6	-3
COc1cccc2cc(C(=O)C3=C(O)C(=O)N(CCN(C)C)C3c3ccc(Cl)cc3)oc12 (stereo unspecified)	-1	-0.4	-1.7	-1.5%	-7	1
CC(=O)Nc1nc(-c2ccc3ccccc3c2)cs1	6	-0.7	-0.7	1.5%	-5	-14
CCOc1ccc(CN2CCN(Cc3c[nH]c4ccccc34)CC2)cc1	-14	-1.0	-3.8	3.0%	-18	-6

One compound at a time, as listed above. Values in the order: Six1-Eya2 blk	TRPML1 ag	D2 ag	PINK1 modulator	D2 PAM	TRPML1 inh
CC(NCc1ccc(S(N)(=O)=O)cc1)C(=O)Nc1cccc(Cl)c1 (stereo unspecified) is listed as -1	-0.9	-4.2	1.2%	-18	11
CCCCNC(=O)C1(C)CCCCN1C(=O)c1cc(C#N)cs1 (stereo unspecified) is listed as 11	-0.2	-3.3	-0.4%	-3	·
COc1cccc2cc(C(=O)C3=C(O)C(=O)N(CCN(C)C)C3c3ccc(Cl)cc3)oc12 (stereo unspecified) is listed as -1	-0.4	-1.7	-1.5%	-7	1
Cc1cccc(NC(=O)C2CCCN(S(=O)(=O)c3ccc4[nH]c(=O)ccc4c3)C2)c1 (stereo unspecified) is listed as -5	1.3	-0.6	9.6%	0	15
CCOc1ccc(CN2CCN(Cc3c[nH]c4ccccc34)CC2)cc1 is listed as -14	-1.0	-3.8	3.0%	-18	-6

Later entries.
SMILES	Six1-Eya2 blk	TRPML1 ag	D2 ag	PINK1 modulator	D2 PAM	TRPML1 inh
Cc1ccc(Cl)cc1N1CCN(Cc2nnnn2C2CCCCC2)CC1	-10	3.5	-3.6	8.4%	-4	-5
O=Cc1ccc(OCc2cn3ccccc3n2)cc1	2	0.3	-3.8	0.3%	-7	0
CCn1nnc(NC(=O)c2cccc(-c3cc4ccccc4oc3=O)c2)n1	-9	1.6	0.8	1.1%[38.3 µM]	-6	0
CCN(CC)c1ccc(NC(=O)c2cc(C)nc3c2c(C)nn3-c2ccc(C)cc2)c(C)c1	·	0.1	·	1.2%	·	35
COC(=O)C(C)Sc1nnc(-c2ccncc2)o1 (stereo unspecified)	0	-0.7	-1.9	5.9%[38.3 µM]	-5	4
CCOC(=O)Nc1nnc(CCc2ccccc2)s1	2	-0.4	-2.3	0.4%	-14	0
Cc1ccccc1CS(=O)(=O)c1ccc(C(=O)N2CCOCC2)cc1[N+](=O)[O-]	0	5.1	12	-0.8%	0	7
CCCc1nnc(NC(=O)c2c(O)c3cccc4c3n(c2=O)CC4)s1	-2	-0.1	-4.4	?	-7	-1
Cc1cccc2cc3c(NC(=O)C(C)C)nn(C)c3nc12	-2	-0.7	-2.4	6.0%	-17	6
Cc1ccc(S(=O)(=O)N2CCCN(C(C)c3nc4ccccc4c(=O)[nH]3)CC2)cc1 (stereo unspecified)	-4	0.6	0.5	1.4%	-7	-5
Cc1cc(C)nc(NS(=O)(=O)c2cccs2)c1	12	-0.4	-0.4	1.4%	-2	39
c1ccc(-c2ncc(CN3CCN(c4ccccn4)CC3)[nH]2)cc1	-1	1.0	-0.9	-0.1%	-13	36
CC(=O)N1CCN(C(=O)CSc2cc(C)c(Br)cc2C)CC1	12	-0.3	-4.2	-0.9%	-5	-9
CCCCSCCCNC(=O)C1CCN(Cc2nc(-c3ccc(CC)cc3)oc2C)CC1	·	-0.1	·	8.6%	·	11
Cc1nc2c3ccccc3nc(SCC(=O)c3ccc(Cl)cc3)n2n1	3	2.0	-3.5	?	-1	18
Cc1ccnc(NC(c2ccccc2)c2ccc3cccnc3c2O)c1 (stereo unspecified)	-78*	-0.7	-3.0	2.0%	-6	-2
Cc1ccc(-c2nc(CS(=O)(=O)CC(=O)N3CCN(c4ccccc4)CC3)c(C)o2)cc1	·	0.6	·	0.8%	·	-9
O=C(NCc1cccc(Cl)c1)c1cc(=O)[nH]c2ccccc12	5	0.4	-1.5	4.9%	-3	5
CCOC(=O)c1sc(NC(=O)COc2ccccc2Cl)c(C(=O)OCC)c1C	·	0.4	·	4.1%	·	13
COc1cc(NC(=O)c2ccccc2)c(OC)cc1NC(=O)Cc1ccc(Br)cc1	3	0.7	2.1	13%	2	-18
CC1(C)CC2CN(C(=O)Cc3ccccc3)C(C)(C2)C1 (stereo unspecified)	14	2.4	-3.8	-1.0%	-3	-20
CCCN(CCO)Cc1ccc(Br)cc1	5	0.1	0.9	·	-18	9
Cn1nc(C(C)(C)C)cc1NC(=O)C1(C)CCN1C(=O)CC(c1ccccc1)c1ccccc1 (stereo unspecified)	1	-0.9	-4.5	1.3%	-16	·
Cc1cc(C)nc(SCCC(=O)Nc2ccccc2C)n1	8	0.0	0.9	0.3%	1	-4
COc1ccc(-n2cc(-c3ccccc3)[nH]c2=S)cc1	-8	1.6	2.2	3.7%	-9	13
O=C(Nc1ccc(C(=O)N2CCN(c3ccccc3F)CC2)cc1)C1=CSCCO1	5	0.1	1.1	0.6%	-9	-3
COc1ccc(C(=O)COC(=O)c2ccc(OC)c(OC)c2)cc1OC	3	0.3	-1.9	-1.8%	3	15
CC1c2nc3ccccc3n2C(CC(=O)NCc2ccccn2)C(=O)N1Cc1ccccc1 (stereo unspecified)	-3	0.5	-1.8	0.8%[38.3 µM]	-4	8
CCCCCn1c(CN2CCN(c3cc(Cl)ccc3C)CC2)nc2c1c(=O)[nH]c(=O)n2C	3	1.3	-2.6	-1.4%[38.3 µM]	-3	10
O=C(COC(=O)c1cnccn1)c1ccc(-c2ccccc2)cc1	-12	-0.1	-10	0.7%	-36	2
CCc1cc2c(C)ccc(C)c2nc1SCC(=O)Nc1c(C)[nH]c(=O)[nH]c1=O	2	0.2	-5.3	?	-11	11
COC(=O)c1cc(CNC(=O)CC(C)c2ccccc2)ccc1OC (stereo unspecified)	5	-0.2	-6.1	2.5%	-1	1
O=C(Nc1ccc(F)cc1)Nc1nnc(-c2ccccc2)o1	4	0.2	-1.7	1.0%	-3	35
Cc1ccc(N2CCN(C(=O)Nc3cn(CC(C)C)c(=O)c4ccccc34)CC2)c(C)c1	·	1.4	·	4.8%	·	10
O=C(O)c1c[nH]c2ccc([N+](=O)[O-])cc2c1=O	-7	0.1	-1.0	-0.1%	-7	1
COc1ccccc1-c1c(C)[nH]n2c(=O)c(Cc3ccccc3)c(C)nc12	-16	3.7	0.4	2.6%	-17	18
CC(=O)Nc1cc(-c2cccc(C(=O)N(C)C)c2)cn2c(-c3cccc(C(F)(F)F)c3)cnc12	-8	1.1	-3.0	2.5%	-6	·
CCc1nc2c(OCCn3cccc3)cccn2c1N(C=O)Cc1ccccc1	-10	-0.4	-1.7	2.0%	9	·
Cc1cccc(NS(=O)(=O)c2ccc3c(c2)CCN3C(=O)C2CC2)c1C	·	0.7	·	-0.1%	·	11
O=C(Nc1ccc(C(=O)O)cc1)Nc1ccc(F)cc1F	-21	-0.2	2.5	-1.5%	1	1
O=c1ccnc(SCc2ccccc2Cl)[nH]1	0	0.6	3.5	-2.6%[38.3 µM]	2	-7
CCOC(=O)c1ccc(NC(=O)c2c(C)nn(-c3ccc(F)cc3)c2-n2cccc2)cc1	·	4.6	·	3.0%	·	0
COc1ccccc1NC(=O)CSc1nnc(NC(=O)c2ccco2)s1	-6	0.8	-1.7	1.8%	-12	-4
Cc1ccc(-c2ccccc2NC(=O)CCl)o1	0	-0.1	-2.4	1.1%	-8	9
COC(=O)c1ccc(NS(=O)(=O)c2ccc(S(=O)(=O)N3CCOCC3)cc2)cc1	3	-0.4	0.2	-0.6%	-16	-15
